# VDR inhibitor – blocks the human vitamin D receptor | P11473 | VDR-SRC2-3 peptide fluorescence polarization, 2 h | Potency, µM, for inactives: max response, negative = inhibition, most hits filed as inhibitors | 400,000 tested, 0.93% active; active means well fitted inhibition curve with a large enough effect; inconclusive means small, poorly fitted or top-dose-only effect, or another doubt; inactive means no such curve, though single readings can be large or run the other way; further: series mostly up to about 120 µM
# Target sequence (P11473 whole entry, looked up): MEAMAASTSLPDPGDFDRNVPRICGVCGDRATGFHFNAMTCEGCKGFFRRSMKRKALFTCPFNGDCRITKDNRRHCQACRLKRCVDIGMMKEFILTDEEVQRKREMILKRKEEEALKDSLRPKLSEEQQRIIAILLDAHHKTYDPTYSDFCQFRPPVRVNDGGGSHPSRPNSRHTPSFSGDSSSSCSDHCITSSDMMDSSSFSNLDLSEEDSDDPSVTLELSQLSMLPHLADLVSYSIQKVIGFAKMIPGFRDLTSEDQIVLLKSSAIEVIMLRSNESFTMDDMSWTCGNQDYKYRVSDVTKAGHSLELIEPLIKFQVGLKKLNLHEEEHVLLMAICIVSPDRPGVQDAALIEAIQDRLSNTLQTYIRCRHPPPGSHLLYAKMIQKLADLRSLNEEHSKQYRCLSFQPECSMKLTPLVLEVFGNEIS
#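 Reagent solutions, kept cold and dark, are dispensed first; compounds are then pinned in at 23 nl, plates briefly spun, and incubated 2 h at ambient temperature. Inhibition of VDR–SRC2-3 peptide binding is read by fluorescence polarization.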
# * hit, by the source's call; ? = inconclusive. On the % scale 0 is the no-effect control and ±100 the full control effect; potency means the concentration at half of the fitted maximal effect.
# Start of the data: the first 3 records, to show the layout:
no.	smiles	VDR inhibitor
1	COc1ccc(CCNC(=O)c2cc([N+](=O)[O-])cc([N+](=O)[O-])c2)cc1OC	10%
2	CC(=O)N1CSCC1C(=O)O (stereo not given)	-4%
3	CC1(C(=O)Nc2cccc(S(=O)(=O)N3CCOCC3)c2)Cc2ccccc2C(=O)O1 (stereo not given)	1%

# This part in full (from the top)
no.	smiles	VDR inhibitor
1	COc1ccc(CCNC(=O)c2cc([N+](=O)[O-])cc([N+](=O)[O-])c2)cc1OC	10%
2	CC(=O)N1CSCC1C(=O)O (stereo not given)	-4%
3	CC1(C(=O)Nc2cccc(S(=O)(=O)N3CCOCC3)c2)Cc2ccccc2C(=O)O1 (stereo not given)	1%
4	CCN(CC(=O)NCc1ccc(F)cc1)CC(=O)Nc1ccc(S(=O)(=O)N2CCCC2)cc1	3%
5	Cc1cc(C)n(CC(=O)N/N=C/c2cc(Br)cc([N+](=O)[O-])c2O)n1	3%
6	O=C(CCSc1ccccc1)Nc1ccc(OCc2ccccc2)cc1	5%
7	O=c1cc(CSc2nc(NCc3ccccc3)c3ccccc3n2)nc2ccc(Cl)cn12	-6%
8	CC(=O)c1cccc(NC(=S)NCc2ccccc2)c1	-15%
9	Cc1ccc(-n2nc3c(Cl)nnc(C)c3c2C)cc1	5%
10	OC(COCC1CC=CCC1)Cn1cnc2ccccc21 (stereo not given)	19%
11	COc1cc(OCc2ccc(C)cc2)ccc1CNC[C@H]1O[C@@H](n2cnc(C(N)=O)n2)[C@H](O)[C@@H]1O	-1%
12	COc1cccc(Cn2nnc(C(=O)NCc3ccccc3Cl)c2N)c1	-5%
13	OC(COc1ccccc1)CN1CCN(c2ccccc2)CC1 (stereo not given)	-5%
14	CCS(=O)(=O)NCc1csc(-c2ccccc2)n1	-15%
15	CC1CN(C/C(=N\O)C23CC4CC(CC(C4)C2)C3)CC(C)O1 (stereo not given)	3%
16	CC#CCN1c2ccccc2[C@]23C[C@@H](C(=O)OC)N(C(=O)OCC)C2=NC(C(=O)OC)=C(C(=O)OC)[C@H]13	-1%
17	O=C(CSc1ncccn1)Nc1ccccc1	-11%
18	CC(C)Cn1c(=O)c2c(c3ccccc31)OC(C)C(=O)N2 (stereo not given)	26%
19	CC1=CC(C)(C)[N+](C)(C)c2ccccc21	-9%
20	COC(=O)c1ccc(CN2CCN(CCC(C)C)C(CCO)C2)cc1 (stereo not given)	19%
21	C=C1CC2(CC(c3ccccc3)OC(c3ccccc3)C2)OC1=O (stereo not given)	?
22	O=C(CS(=O)(=O)c1ccc(Br)cc1)N1CCOCC1	10%
23	COc1ccc(C(=O)NCC(=O)OCC(=O)NC(=O)NC2CCCCC2)cc1OC	-10%
24	CC(C)c1ccc(Oc2cccc3c2S(=O)(=O)N(C2CCCC2)CC(COCc2ccccc2)O3)cc1 (stereo not given)	-4%
25	Cc1ccc(-c2csc3nc[nH]c(=O)c23)c(C)c1	11%

# (next part)
no.	smiles	VDR inhibitor
26	Nc1c(C(=O)N/N=C/c2cccnc2)oc2nc(-c3ccco3)cc(-c3ccco3)c12	6%
27	CNc1ccc(S(=O)(=O)NC)cc1[N+](=O)[O-]	-3%
28	CC(C)OC(=O)c1c(NC(=O)CCn2nnc3ccccc32)sc2c1CCCC2	2%
29	CN(C)C(=O)c1ccc(NC(=O)Cn2nc(-c3ccccc3)c3ccccc3c2=O)cc1	10%
30	COc1ccc2c(c1)cc1c(=O)n(CC(=O)NCCc3ccccc3)nc(C)n12	-1%
31	CCn1c2ccccc2c2cc(NC(=O)c3ccc(C)c([N+](=O)[O-])c3)ccc21	-5%
32	COc1cnc(-c2ccccn2)nc1Oc1ccc(Cl)c2ccccc12	4%
33	COc1ccc(/C=N/OCC(=O)Nn2c(C)nc3ccccc3c2=O)cc1	-1%
34	COc1ccc(NC(=S)N2CCN(S(=O)(=O)c3ccc(OC)cc3)CC2)cc1	-11%
35	O=C(/C=C/c1c(Cl)cccc1Cl)n1cccn1	-29%
36	CC1CCN(c2cc(N3CCC(C)CC3)c([N+](=O)[O-])cc2/C=C(\C#N)c2nn(-c3ccccc3)c(N)c2C#N)CC1	0%
37	COc1ccc(OCCCn2cccc2/C=C2/C(=N)N3OC(C)=CC3=NC2=O)cc1	-13%
38	CCOc1ccc(-c2cc(C(=O)N3CCCC3)c3ccccc3n2)cc1	3%
39	Cc1cc(N2CCN(C(=O)Nc3ccc(F)cc3F)CC2)c2ccccc2n1	-9%
40	CCOC(=O)c1ccc(NCCc2ccc(OC)c(OC)c2)c(N)c1	-17%
41	C#CCOCCOCCOCCNc1nc(N2CCN(C(=O)CCCCCCCCCCNC(=O)[C@@H](CCSC)n3cc(CCO)nn3)CC2)nc(N2CCN(C(=O)CCCCCCCCCCNC(=O)[C@H](CCC(=O)O)n3cc(CCCCCN)nn3)CC2)n1	5%
42	COc1nccc(NCc2ccccc2)c1C#N	-17%
43	O=C(O)c1cc(-c2ccccc2)n[nH]1	0%
44	COC(=O)c1ccn(-c2nc(-c3ccco3)cc(C(F)(F)F)n2)n1	-9%
45	O=C(C1CCN(CCCc2ccccc2)CC1)N1CCCCC1	-23%
46	COc1ncnc2c1oc1ccccc12	3%
47	O=c1[nH]c2ccc(NC(=S)NC3CCCCC3)cc2[nH]1	-18%
48	CCN(CC)c1ccc(C=C2C(=O)OC3(CCCCC3)OC2=O)cc1	?
49	O=C(CNC(=O)c1cccc(-n2cnnn2)c1)Nc1ccc(F)c(F)c1	-1%
50	CC1CCN(S(=O)(=O)c2cc(C(=O)NC3(C)CCS(=O)(=O)C3)ccc2Br)CC1 (stereo not given)	-12%

# An excerpt from above in order of count of non-hydrogen atoms, lowest first:
no.	smiles	VDR inhibitor
46	COc1ncnc2c1oc1ccccc12	3%
27	CNc1ccc(S(=O)(=O)NC)cc1[N+](=O)[O-]	-3%
47	O=c1[nH]c2ccc(NC(=S)NC3CCCCC3)cc2[nH]1	-18%
44	COC(=O)c1ccn(-c2nc(-c3ccco3)cc(C(F)(F)F)n2)n1	-9%
48	CCN(CC)c1ccc(C=C2C(=O)OC3(CCCCC3)OC2=O)cc1	?
49	O=C(CNC(=O)c1cccc(-n2cnnn2)c1)Nc1ccc(F)c(F)c1	-1%
28	CC(C)OC(=O)c1c(NC(=O)CCn2nnc3ccccc32)sc2c1CCCC2	2%

# Following part.
no.	smiles	VDR inhibitor
51	O=C(c1cccc(Cl)c1)N1CCC(=O)N([C@H](COCc2cccc(Cl)c2)Cc2ccccc2)CC1	-25%
52	Cc1nnc(SC(C)C(=O)NC2CCCCC2)[nH]c1=O (stereo not given)	-15%
53	O=C1CC(C(=O)N2CCOCC2)C2(CCCC2)O1 (stereo not given)	11%
54	COCCCNC(=O)C[C@H]1C[C@H](C(=O)N2CCCCC2)[C@@]2(CCc3ccccc3)c3[nH]c4cc(-c5ccco5)ccc4c3CCN2C1=O	-20%
55	O=C(c1cccs1)N1CCN(c2nc3c(F)cc(F)cc3s2)CC1	-13%
56	N/C(=N\OC(=O)c1cccc(Br)c1)c1ccc(Br)cc1	-4%
57	Cc1c(S(=O)(=O)N2CCOCC2)c(=O)n(C)c(=O)n1C	-4%
58	COc1cc(O)c2c(c1)OC(C)(C)CC2=O	-5%
59	CCCn1nc2cc(C(=O)N(CC)c3ccc(OC)cc3)ccc2c1OCC	-15%
60	CCOc1ccccc1CN1CCN(S(=O)(=O)c2ccccc2)CC1	4%
61	Oc1ccc(C2=NN(c3ccccc3)C(c3ccc(F)cc3)C2)cc1 (stereo not given)	7%
62	CCN(CC)C(=S)NC(=O)c1ccc(OC)c(Br)c1	-10%
63	CN(C)CCCNC(=S)N(CCN(C)C)Cc1cc2cc3c(cc2[nH]c1=O)OCCO3	-2%
64	CCOC(=O)c1cc(OC(=O)c2cc(Cl)ccc2OC)n(-c2ccccc2)n1	6%
65	COCCNc1ccnc(-c2ccccc2CN(C)C)n1	7%
66	COc1ccc(-n2nnnc2SCC(=O)Nc2cccc(C)n2)cc1OC	8%
67	COc1cc(NC(=S)NCCC(c2ccccc2)c2ccccc2)cc(OC)c1	-10%
68	C/C(=N/OC(=O)c1ccc(F)cc1)c1ccc(C)cc1	13%
69	CCN(CC(=O)Nc1ccccc1OC)Cc1csc(CC(=O)Nc2ccc(C)cc2)n1	-5%
70	Cc1cc(N/N=C/c2ccc(N(C)C)cc2)c2ccccc2n1	4%
71	CC1CC(C)CN(C(=O)CNS(=O)(=O)c2cccs2)C1 (stereo not given)	-11%
72	COC(=O)[C@H](CC(C)C)NS(=O)(=O)N[C@@H](CC(C)C)C(=O)OC	2%
73	CCn1cc(/C=N/NC(=O)c2ccc3c(c2)OCO3)cn1	1%
74	CCn1cc(S(=O)(=O)c2ccccc2)c(=O)c2cc(F)c(N3CCCCCC3)cc21	3%
75	COc1cccc(CNCCN2CCOCC2)c1OC	11%

# Continuation:
no.	smiles	VDR inhibitor
76	Cc1cc(Nc2cccc(C(F)(F)F)c2)nc2ccc(NC(=O)Cc3ccc(Cl)cc3)cc12	9%
77	O=C(NC(CC(=O)N1CCN(c2ccc([N+](=O)[O-])cc2)CC1)c1ccccc1)c1ccccc1Cl (stereo not given)	-2%
78	CCCCN(CCCNc1ncnc2nc[nH]c12)c1ccccc1	3%
79	CCN(CC)S(=O)(=O)c1ccc(S(=O)(=O)Nc2cc3c(cc2C(C)=O)OCO3)cc1	-4%
80	Cc1nc2c(c(C)nn2C(C)(C)C)c(C)c1CCC(=O)Nc1ccc(F)cc1	1%
81	O=C(CSc1nnc(-c2ccccc2F)n1C1CC1)NC(=O)c1cccc([N+](=O)[O-])c1	3%
82	CC(NC(=S)NC1CCCCC1)c1ccc(C(C)(C)C)cc1 (stereo not given)	3%
83	CCOc1ccc(-n2ccnc2SCC(=O)Nc2cc(C)on2)cc1	-10%
84	CCCCn1c(/N=C/c2ccccc2NS(=O)(=O)c2ccc(C)cc2)nc2ccccc21	9%
85	CCOCCc1nn2c(=O)cc(COC(=O)c3ccc(NC(=O)C4CCCCC4)cc3)nc2s1	-7%
86	COc1ccc(NC(=O)CN(C)S(=O)(=O)c2ccccc2)cc1	-14%
87	COc1cc(-n2nc(C)c3c2OC(N)=C(C#N)C3c2ccccc2)c(Cl)c(Br)c1O (stereo not given)	-11%
88	COc1ccc(Cn2c(C3CCCCC3)nc3c(c(=O)c4ccccc4n3C)c2=O)cc1	-30%
89	O=C1c2ccccc2C(=O)C1Cc1cccc2ccccc12	?
90	CC(C)Cn1c(-c2ccco2)csc1=Nc1cccnc1	-18%
91	Cc1cccc(-n2nc([N+](=O)[O-])c(=NC3CCN(Cc4ccccc4)CC3)n2O)c1	-10%
92	O=C(COC(=O)C1CC2CCCC(C1)C2=O)NC(=O)c1ccc(OC(F)F)cc1 (stereo not given)	-8%
93	Cc1cccc(C)c1C(=O)N[C@@H](Cc1ccccc1)C(=O)O	4%
94	O=C(Cc1ccc(F)cc1)NCCc1ccccc1	17%
95	CCOC(=O)C1CCN(C(c2ccc(C)cc2)c2sc3nc(-c4ccco4)nn3c2O)CC1 (stereo not given)	8%
96	CC(C)Nc1nc(SCC(N)=O)nc(N2CCOCC2)n1	-2%
97	Cc1cc(C)c2[nH]c(=O)c(CN(Cc3nnnn3C3CCCC3)C3CCCCC3)cc2c1	10%
98	CCc1nn(CC(=O)NCCc2ccc(S(N)(=O)=O)cc2)c(=O)c2cc3sccc3n12	-6%
99	O=C(COc1ccccc1)OCc1cc2ccccc2[nH]c1=O	19%
100	O=C(CN1CCN(c2ccccc2)CC1)c1ccc2cc[nH]c2c1	-14%

# (list continues)
no.	smiles	VDR inhibitor
101	CC(OC(=O)Cc1c(F)cccc1Cl)C(=O)NC1CCCCC1C (stereo not given)	-14%
102	Cc1occc1C(=O)Nc1ccc(S(N)(=O)=O)cc1	?
103	COc1ccc(-c2csc(NC(=O)c3ccc(S(=O)(=O)N4CCc5ccccc5C4)cc3)n2)c(OC)c1	-11%
104	Cc1ccccc1OCC(=O)NCCNC(=O)c1cccnc1	-13%
105	COc1cc(OC)c(NC(=O)Cn2c(=O)oc3cc(S(=O)(=O)N4CCCC4)ccc32)cc1Cl	6%
106	CC(C)NC(=O)c1ccc(N(Cc2ccccc2)S(C)(=O)=O)cc1	-9%
107	COc1ccc(CCNc2ncnc3c2nnn3C)cc1OC	15%
108	COc1ccccc1N=Nc1c(C)noc1C	-5%
109	CN1C(=O)[C@H]2[C@@H](/C=C/c3ccccc3)N3C(=O)CN(Cc4ccc(-c5ccccc5)cc4)C(=O)[C@@]3(C)[C@H]2C1=O	-3%
110	CCN(CC)S(=O)(=O)c1cc(NC(=S)NC(=O)C2CCCC2)ccc1C	21%
111	COC(=O)CNC(=O)c1ccccc1[N+](=O)[O-]	2%
112	COc1ccc(CCN2CC(C(=O)Nc3cc(S(C)(=O)=O)ccc3Cl)CC2=O)cc1OC (stereo not given)	-4%
113	O=C(OCc1nnc(-c2ccccc2)o1)c1cc(Cl)ccc1[N+](=O)[O-]	?
114	CCC(C)(C)NC(=O)C(c1ccc(OC)cc1)N(C(=O)CCC(=O)Nc1cc(C)on1)c1cccc(OC)c1 (stereo not given)	-16%
115	O=C(CCSCc1cccc(Cl)c1)N1CCN(c2ccc(Cl)cc2)CC1	11%
116	COc1ccccc1NC(=O)c1ccc(-n2ccnc2)c([N+](=O)[O-])c1	-11%
117	COc1ccc(C2c3c(oc4ccccc4c3=O)C(=O)N2CCN2CCOCC2)cc1OC (stereo not given)	8%
118	COc1cc(C2CC(=O)OC3=C2C(=O)CC(C)(C)C3)cc(OC)c1OC (stereo not given)	-16%
119	COCCCNC(=O)/C(C#N)=C/c1c(N2CCCCCC2)nc2ccccn2c1=O	-3%
120	CCCCn1c(CNC(=O)C23CC4CC(CC(C4)C2)C3)nnc1SC(C)CC (stereo not given)	-12%
121	O=C(Nc1cccc2ccccc12)OC1C=CS(=O)(=O)C1 (stereo not given)	5%
122	CC(C)[C@H](NC(=O)[C@@H]1CSC2c3ccccc3C(=O)N21)C(=O)NC1CCCC1 (stereo not given in full)	-2%

# Bioassay records from PubChem.

# This is a subset, so the mix of outcomes need not match the whole.
